# High-throughput results: PubChem, National Center for Advancing Translational Sciences (NCATS)
# Menin MLL FP FL: qHTS Assay for Inhibitors Targeting the Menin-MLL Interaction in MLL Related Leukemias: Competition With Fluorescein Labeled MLL-derived Peptide. Fluorescence polarization, fluorescein-MLL peptide displacement from menin. FP activity change, % at 61.4 µM. 290,000 tested, under 10 active; inconclusive = falling polarisation curve, or a change in total fluorescence; inactive = total fluorescence flat and polarisation flat or rising; no compound was filed as active; the % refers to the polarisation; negative = inhibition;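 note: % of control where 0% means no effect; inhibitors lower the polarisation; unlabelled MLL peptide was the positive control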
# gsp ag: qHTS for Agonist of gsp, the Etiologic Mutation Responsible for Fibrous Dysplasia/McCune-Albright Syndrome: qHTS; gsp mutant cells, cAMP HTRF, 30 min; control for the full effect not named in the record; Potency, µM (doses to about 76.9 µM), for the others: at the highest dose activation (cAMP increase), most hits filed as activators; actives 0.13% (n = 340,000); AID 624287, 2012; active = well fitted activation curve with a large enough effect; inconclusive = small, poorly fitted or top-dose-only effect, or another doubt; inactive = no such curve, though single readings can be large or run the other way; cell line not stated here;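 note: phosphodiesterase inhibitor Ro 20-1724 added with compounds to block cAMP breakdown; potency is the fitted concentration of half-maximal effect; nearly all actives have a fitted effect of over 60% in size; about a fifth of the inactives were tested at one dose only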
#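 Cells in DMEM/10% FBS with G418 were pretreated with compounds in DMSO plus […] (300 uM stock) for 30 min at 37C. cAMP was measured by HTRF (cAMP-d2 plus anti-cAMP antibody-K) after 30 min at room temperature.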
# gsp antagonist: qHTS for Antagonists of gsp, the Etiologic Mutation Responsible for Fibrous Dysplasia/McCune-Albright Syndrome: qHTS | gsp-mutant cells, cAMP HTRF, 30 min; control for the full effect not named in the record | Potency, µM (highest dose often 76.9 µM), for the others: at the highest dose activity change, negative = inhibition, usual class: inhibitors | actives 0.4% (n = 340,000); active = falling curve of any shape with a large fitted effect; inconclusive = falling curve, mostly with a smaller effect; inactive = flat or rising curve; cell line not stated here;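 note: intracellular cAMP measured with PDE inhibitor Ro 20-1724 present during compound exposure; potency is the fitted concentration of half-maximal effect; % is set by controls: 0 for no effect and ±100 for the full control effect; nearly all actives have a fitted effect of over 65% in size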
#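 G418-selected cells were plated in DMEM/10% FBS for 16-24 h at 37C, then treated with compounds plus the PDE inhibitor […] (300 uM solution added) for 30 min at 37C. Intracellular cAMP was measured by HTRF after 30 min lysis at room temperature.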
# TRPML1 blocker: qHTS for Inhibitors of the Human Mucolipin Transient Receptor Potential 1 (TRPML1). Mucolipin-1 (Homo sapiens), Q9GZU1. TRPML1-inducible cells, Ca2+ dye fluorescence, FDSS; stronger effect = lower value; inhibition of EC80 agonist-evoked calcium signal. activity change, negative = inhibition, % (no concentration beside the values). actives 0.02% (n = 390,000); in the data active means activity change below about -50%; inconclusive means about -30% to -50%; inactive means above about -30%;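 note: stimulus is agonist 54-4 at its EC80 concentration; % is set by controls: 0 for no effect and ±100 for the full control effect; compound concentration not given in the record; the text of the record puts the active cut at -80%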
# Target sequence (Q9GZU1 whole entry, looked up): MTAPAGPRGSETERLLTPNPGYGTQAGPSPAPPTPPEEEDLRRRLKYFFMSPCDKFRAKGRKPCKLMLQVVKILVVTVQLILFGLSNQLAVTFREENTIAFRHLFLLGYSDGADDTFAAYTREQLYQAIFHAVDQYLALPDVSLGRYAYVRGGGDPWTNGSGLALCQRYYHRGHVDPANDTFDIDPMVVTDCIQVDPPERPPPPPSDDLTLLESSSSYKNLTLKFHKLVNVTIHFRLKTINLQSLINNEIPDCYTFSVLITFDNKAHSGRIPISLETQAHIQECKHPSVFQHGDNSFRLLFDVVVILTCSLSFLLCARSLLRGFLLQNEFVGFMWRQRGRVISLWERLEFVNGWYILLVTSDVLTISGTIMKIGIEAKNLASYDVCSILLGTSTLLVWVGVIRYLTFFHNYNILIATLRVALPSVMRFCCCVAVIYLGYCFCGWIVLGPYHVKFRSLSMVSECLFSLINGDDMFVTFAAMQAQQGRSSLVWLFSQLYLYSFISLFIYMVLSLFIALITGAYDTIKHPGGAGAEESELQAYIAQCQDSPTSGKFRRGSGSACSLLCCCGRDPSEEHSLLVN
#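 Tet-induced TRPML1-DL cells loaded with Ca8 no-wash calcium dye were read kinetically on FDSS. Compound addition was followed by EC80 agonist 54-4 (4 uM final); inhibition was read over 110 s.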
# ClpP mod: qHTS Assay for Activators of ClpP; purified B. subtilis ClpP, FRET peptide cleavage, 20 min; actives 1.9% (n = 340,000); Potency, µM (series often up to 57.5 µM), for inactives: at the highest dose activity change, negative = active; ATP-dependent Clp protease proteolytic subunit (Bacillus subtilis (strain 168)), P80244; active = well fitted falling curve with a large enough effect; inconclusive = small, poorly fitted or top-dose-only effect; inactive = no such curve, though single readings can be large or run the other way; note: potency is the fitted concentration of half-maximal effect; the source files actives as falling curves though it sought activators and does not explain the sign; nearly all actives have a fitted effect of over 65% in size; many hits overshoot -100%
# Target sequence (P80244 whole entry, looked up): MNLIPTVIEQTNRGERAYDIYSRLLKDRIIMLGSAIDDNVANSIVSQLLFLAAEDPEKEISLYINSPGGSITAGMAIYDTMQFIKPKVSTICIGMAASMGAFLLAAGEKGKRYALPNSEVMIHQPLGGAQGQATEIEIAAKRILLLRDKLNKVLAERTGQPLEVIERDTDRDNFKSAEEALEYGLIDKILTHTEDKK
#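 Buffer: 100 mM Tris/HCl pH8, 100 mM KCl, 0.05% low protease BSA, 2.5% glycerol, 0.01% Tween-20. ClpP 10 microg/mL final; 20 min RT; delta FRET normalized to ADEP and DMSO controls.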
# TRPML1 agonist: qHTS for Agonists of the Human Mucolipin Transient Receptor Potential 1 (TRPML1); Mucolipin-1 (Homo sapiens), Q9GZU1; TRPML1-expressing cells, Ca2+ dye fluorescence, FDSS; host cell line not named in the record; reference of the full effect not given here; activation, % (test concentration not listed); actives 0.12% (n = 410,000); AID 624414, 2012; in the data active = activation above about 50%; inconclusive = about 30% to 50%; inactive = below about 30%; note: 0% is about no effect; the text of the record puts the active cut at 80%
#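 Cells: TRPML1-DL, 1X Tet inducer, ~16 h at 37 degrees C/5% CO2. Dye: ABD Ca8 no-wash + quencher, 45-90 min RT. Read: 10 s baseline, compound add, 110 s agonist phase; 54-4 EC80 (4uM final), 110 s antagonist phase.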
# Starred values were filed as active, the others as inactive; u = inconclusive; x = not tested or not shown; & = joins results of further samples; [ ] = remark or other dose. Outcome played no part in choosing rows, and some 2.1% of all compounds hit somewhere here.
SMILES,Menin MLL FP FL,gsp ag,gsp antagonist,TRPML1 blocker,ClpP mod,TRPML1 agonist
Nc1cc(=O)[nH]n1C1CCN(c2ccccc2)CC1,-0.1,-4%,-4%,-3,-1.3%,2.3
CC(O)CNCCCOc1cccc(C(F)(F)F)c1 (stereo unspecified),4.0,37%[15.4 µM],-2%,5,-0.9%,-0.2
Cc1ccc(NC(=O)c2ccc(S(=O)(=O)N3CC(C)CC(C)C3)cc2)cc1S(=O)(=O)N1CCOCC1 (stereo unspecified),x,23%,-9%,0,-14%,1.8
CCC1=NN2C(=N)/C(=C/c3ccc(OS(=O)(=O)c4ccc(C)cc4)c(OC)c3)C(=O)N=C2S1,-4.3,5%,-18%,19,x,0.3
COc1cc(NC(=O)CSCc2ccc(Cl)cc2Cl)c(C(=O)O)cc1OC,-2.4,5%[15.4 µM],-17%,42,-1.5%,-0.9
CCn1c(C)cc(C(=O)COC(=O)c2ccccc2[N+](=O)[O-])c1C,x,-18%,10%,13,0.4%,2.4
CCC(CC)c1nnc(NC(=O)CCS(=O)(=O)Cc2ccccc2)s1,-0.2,-4%[15.4 µM],-9%,4,-2.6%,-0.7
Cc1cc(C)c2nc3nc(C)c(C)cc3c(N)c2c1,-7.5,u,0%,-10,x,0.4
CCCCN1C(N)=NC[C@@H]1Cc1ccccc1,x,x,10%,-6,-1.5%,0.0
COc1ccccc1Cc1c(-c2ccc(C)cc2)nc2c(C)cc(Br)cn12,x,x,x,19,-3.5%,1.1
COc1cc2cc(CN(CCO)S(=O)(=O)c3ccccc3Cl)c(=O)[nH]c2cc1OC,-2.2,4%,8%,12,28µM*,2.1
CCCCOc1ccc(-c2nnn(CCC(=O)N3CCOCC3)n2)cc1,2.1,-14%,-16%,-6,-0.9%,-0.6
COc1ccc(-c2cc(C(F)(F)F)nc(NCc3ccc(Cl)cc3)n2)cc1,x,x,x,52,4.2%,2.9
Cc1[nH]c(=O)[nH]c(=O)c1S(=O)(=O)N(C)Cc1ccccc1,0.4,-7%,3%,-10,-0.5%,-0.6
CCN1CCN(c2nc3c(c(=O)[nH]c(=O)n3C)n2Cc2ccccc2F)CC1,3.4,21%,0%,7,-1.4%,-0.1
Cc1nn(C(=O)c2ccco2)c(C)c1Sc1ccc(Cl)cc1,1.1,0%,9%,81,1.4%,-0.5
O=C(Nc1ccccc1N1CCOCC1)c1cc(=O)[nH]c2ccccc12,x,-32%[inhibitor],9%,10,-1.3%,-0.6
COC(=O)COc1ccc(NS(=O)(=O)c2cccc([N+](=O)[O-])c2)cc1,-2.1,-3%[15.4 µM],u,5,x,-0.1
CCCCNC(=S)N(C)/N=C/c1ccc(OCC(=O)Nc2c(C)cc(C)cc2C)c(OC)c1,4.5,-37%[inhibitor],-10%,13,2.2%,2.5
CCOc1ccc(NC(=O)CSc2ncnc3c2sc2ccccc23)cc1,1.9,7%,17%,-5&-8,-0.6%&-0.5%,4.0&0.5
COc1ccc(OC)c(NC(=O)COc2ccc(S(=O)(=O)NC(C)C)cc2)c1,0.6,-4%,0%,40,1.2%,1.2
CSc1ccc(S(=O)(=O)NCc2ccccc2C)cc1,-1.5,-2%[15.4 µM],4%,-6,x,4.1
Fc1ccc(Oc2nc(-c3ccccc3)nnc2C(F)(F)F)cc1,1.8,22%,7%,19,-9.3%,1.3
Cc1ccc(OCc2cc(C(=O)N3CC4C[C@@H]5CC3C[C@H](C4)C5)no2)cc1C,x,3%,-36%,32,-0.4%,2.3
Cc1ccc(C)c(NC(=O)CNC(=O)N2CC(=O)Nc3ccccc32)c1,-2.5,u,9%,-9,-1.2%,-0.3
O=C(CN1C(=O)S/C(=C\c2ccc(C(=O)O)cc2)C1=O)Nc1ccccc1,-4.4,-14%,-5%,10,-2.0%,-0.2
CCCNC(=O)CCC(=O)Nc1ncc(-c2ccc(C)cc2)n1C,-0.5,20%,0%,29,0.3%,3.4
CCN(CC)S(=O)(=O)c1cnccc1N1CCN(c2cccc(Cl)c2)CC1,-1.5,-4%,-7%,38,-1.9%,2.4
COC(=O)c1cc(NC(=O)c2c(-c3ccccc3)noc2C)ccc1N1CCOCC1,x,-8%,2%,13,-6.5%,0.1
CC(C)(C)NC(=O)C(c1cccs1)N(Cc1ccco1)C(=O)c1csnn1 (stereo unspecified),x,8%[15.4 µM],8%,6,-1.5%,-1.2
Cc1cccc(C)c1OCC(O)Cn1ccnc1C (stereo unspecified),2.0,5%,5%,2,1.8%,-0.8
COc1cc2c(cc1OC)CN(C(=S)Nc1c(C)cccc1C)CC2,3.8,20%,2%,8,-1.5%,2.1
O=C(CSc1nc(Nc2ccccc2)nc(N2CCOCC2)n1)Nc1cccc([N+](=O)[O-])c1,x,-1%[15.4 µM],7%,20,1.7%,-0.4
O=C1NC(=O)C(=Cc2ccc(Cl)c(Cl)c2)S1,x,-28%,-12%,-7,x,-0.3
CC(=O)N1CCN(c2cc3c(cc2F)c(=O)c(C(=O)O)cn3C2CC2)CC1,1.9,-15%,1%,-2,3.9%,0.2
CCc1nonc1NC(=O)c1oc2cc(C)c(Cl)cc2c1C,-0.6,-19%,10%,-3&-15,0.9%&-1.3%,-0.1&1.5
CN1C(=O)c2cccc3c(S(N)(=O)=O)ccc1c23,1.5,23%,3%,-2,-7.0%,-0.4
O=C(NC(=S)Nc1ccc(Cl)cn1)c1cc([N+](=O)[O-])ccc1N1CCOCC1,1.4,u,12%,-3,-0.6%,0.3
Cc1ccc(-c2nnc(SCC(N)=O)nc2-c2ccc(C)cc2)cc1,5.1,-2%[15.4 µM],-7%,-6,x,2.4
CC(C)N1CCN(C2CSCCSC2)CC1CCO (stereo unspecified),5.2,-15%[15.4 µM],9%,-10,x,-0.7

# Quoted at random: 2 compounds from above
SMILES,Menin MLL FP FL,gsp ag,gsp antagonist,TRPML1 blocker,ClpP mod,TRPML1 agonist
O=C1NC(=O)C(=Cc2ccc(Cl)c(Cl)c2)S1,x,-28%,-12%,-7,x,-0.3
CCc1nonc1NC(=O)c1oc2cc(C)c(Cl)cc2c1C,-0.6,-19%,10%,-3&-15,0.9%&-1.3%,-0.1&1.5

# Next part:
SMILES,Menin MLL FP FL,gsp ag,gsp antagonist,TRPML1 blocker,ClpP mod,TRPML1 agonist
COCCSc1ccccc1C(=O)Nc1cc(C)cc(C)c1,-4.4,-1%,-4%,6,2.3%,1.3
Nc1c(NCCN2CCCCC2)c2ccccc2oc1=O,0.2,-1%,-13%,5,-5.4%,0.0
C(/C=C/c1ccccc1)=N/N1CCN(c2ccccc2)CC1,3.3,3%,-1%,-7,-2.4%,0.1
O=C(NC1CC(=O)N(c2cccc(F)c2)C1)c1ccc2c(c1)OCO2 (stereo unspecified),x,x,x,28,-8.2%,-0.5
C[C@H](CO)N1C[C@H](C)[C@@H](CN(C)CC2CCCCC2)Oc2c(NC(=O)C3CC3)cccc2C1=O,x,x,-19%,7,-3.1%,1.3
O=c1c2ccccc2nc(N/N=C/c2c(O)ccc3ccccc23)n1O,x,-19%,10%,10,-1.3%,-0.6
CCCCNC(=O)CC1N=C2c3ccccc3N=C(SCC(=O)Nc3cccc(OC)c3)N2C1=O (stereo unspecified),-2.1,8%,17%,-17,-9.0%,0.7
O=C(O)C1CCN(c2ncccn2)CC1,3.3,u,1%,-3,-22%,0.2
Fc1ccccc1N1CCN(C(c2ccccn2)c2nnnn2C2CCCCC2)CC1 (stereo unspecified),-1.0,-52%[inhibitor],2%,-7,-4.3%,-0.1
COc1ccc(NC(=O)CSc2c3c(nc4cc(Cl)ccc24)CCCC3)cc1OC,11,1%,-16%,14,-2.6%,0.6
O=C(Nc1ccc2c(c1)OCCO2)c1cc2ccccc2o1,-4.6,-1%[15.4 µM],-17%,33,x,-0.7
O=C(OCc1cncs1)c1cccs1,-0.6,24%,-4%,4,x,0.1
O=c1cc(N2CCCC2)[nH]c(=O)n1-c1ccc(Cl)cc1,3.9,-46%[inhibitor],15%,4,-4.6%,-0.1
CCC(CO)N=CC1=C(O)C(C(=O)c2ccccc2)CCC1=O (stereo unspecified),-1.0,0%,-15%[15.4 µM],4,14%,0.8
CCOc1ccc(C(=O)Nc2ccc(Cc3ccncc3)cc2)cc1Br,-2.9,-2%,-24%,-4,x,2.4
COCCCNC(=O)CN(CCc1ccccc1)S(=O)(=O)c1ccc(C)cc1,3.3,12%[15.4 µM],-4%,24,x,0.6
CCCOc1ccc(C(=O)NC2CCSc3ccccc32)cc1 (stereo unspecified),-1.6,22%[15.4 µM],4%,12,x,0.2
CCCn1c(=O)c(Cc2ccccc2)c(O)c2ccccc21,2.3,6%,11%,41,28µM*,0.0
CCOCCCNC(=S)N1C2CCC1CC(NC(=O)NC13CC4CC(CC(C4)C1)C3)C2 (stereo unspecified),-0.8,-5%,3%,8,-0.4%,2.4
NNC(=O)CSc1nc(-c2ccccc2)cn1-c1ccccc1,-0.1,-1%,1%,11,0.0%,-1.2
CCOC(=O)c1c(NC(=O)c2cc(=O)c3cc(C)ccc3o2)sc2c1CCCC2,x,x,x,8,-1.2%,-0.6
Cn1c(=O)c2c(SCc3c(F)cccc3Cl)nc(CC(C)(C)C)nc2n(C)c1=O,0.4,-43%[inhibitor],3%,-8,0.8%,0.2
Cc1ccc(NC(=O)COC(=O)C(NS(=O)(=O)c2ccc(Cl)cc2)C(C)O)cc1C (stereo unspecified),4.0,-25%,-9%,13,1.1%,1.7
CC1CCCC(NC(=O)COC(=O)/C=C/c2ccc(S(=O)(=O)N3CCOCC3)cc2)C1C (stereo unspecified),3.6,8%[15.4 µM],0%,27,x,1.0
CCn1c(SCC(=O)Nc2ccc(OC)c(OC)c2)nnc1-c1cccs1,1.0,-39%[inhibitor],0%,5,0.0%,-0.8
O=C(NCc1ccccn1)Nc1ccc2c(c1)OCO2,0.4,3%,6%,2,-3.0%,-0.1
COc1ccccc1NC(=O)CCC(=O)OC(C)C(=O)c1ccccc1 (stereo unspecified),-3.8,17%[15.4 µM],-30%,9,x,-0.3
COCCCNC(=O)c1ccc(Cn2c(=O)c3ccccc3n(CC(=O)Nc3ccc(C)cc3C)c2=O)cc1,x,x,x,-14,-1.3%,-0.3
Cc1ccc(NC(=O)NNC(=O)c2ccccc2)cc1,-3.0,-90%[inhibitor],12%,15,-0.8%,-0.5
COc1ccccc1/C=C/C(=O)OCC(=O)c1c(N)n(C)c(=O)n(C)c1=O,2.1,-3%,-6%,-13,u,0.6
